NPYLR7 agonist – mosquito NPYLR7 agonism; 0.15% of 270,000 active; activation, % at 10 µM; HEK293T NPYLR7/Galpha15, GCaMP6s calcium fluorescence; AID 1259423; in the data active = activation above about 40%;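 also: 0% = vehicle and 100% = reference agonist at the receptor; some compounds past the cut are filed as inactive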
NPYLR7 agonist max-min – recorded beside NPYLR7 agonist, whose call it bears; activation, %; measured here: Max-Min RFU normalised activation; some inactives read as strong as hits;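 span of the calcium signal over five minutes; 0% = vehicle and 100% = native peptide agonist; compound fluorescence can raise it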
* = called active by the depositor; & = joins results of further samples. This is a subset; rates above refer to the full screens.

molecule	NPYLR7 agonist	NPYLR7 agonist max-min
O=C(OC1CCCC1)c1ccc(NC(=O)C2COCCO2)cc1 (stereo not drawn)	3	-2
COc1ccc(Cc2nnc(Nc3ccccc3)s2)cc1Br	1	-2
O=[N+]([O-])c1cc(S(=O)(=O)Nc2ccccc2)ccc1Nc1ccccc1	-1	-2
CC(C)c1ccc(OCC2c3ccsc3CCN2C(=O)CN(CC2CCCO2)C(=O)Nc2cccc(Cl)c2)cc1 (stereo not drawn)	-4	4
Cc1nc(Nc2ccc(F)cc2)nc(Nc2ccc(F)cc2)c1[N+](=O)[O-]	-5	-8
CCn1nc(C(=O)Nc2cccc3c2C(=O)N(C)C3=O)cc1C	-7	-7
Cc1csc(C(C#N)C=Nc2ccccc2N2CCCCC2)n1 (stereo not drawn)	3	2
O=C(Nc1cccs1)N1CCn2cccc2C1c1ccc(F)c(F)c1 (stereo not drawn)	13	10
O=C(O)c1coc(CN(CCN2CCOCC2)Cc2ccccc2C(F)(F)F)n1	10	9
Cc1cc(N2CCCN(Cc3nc4ccccc4[nH]3)CC2)ccn1	5	2
Cn1c(=O)c2c(=O)cc(N)[nH]c2n(C)c1=O	-5	-12
CCn1cc(C(=O)NCc2cccnc2Oc2c(C)cccc2C)cn1	2	1

Single records, from the list above. Values in the order: NPYLR7 agonist, NPYLR7 agonist max-min
`CCn1cc(C(=O)NCc2cccnc2Oc2c(C)cccc2C)cn1` is entered as 2, 1
`O=C(Nc1cccs1)N1CCn2cccc2C1c1ccc(F)c(F)c1` (stereo not drawn) is entered as 13, 10
`O=[N+]([O-])c1cc(S(=O)(=O)Nc2ccccc2)ccc1Nc1ccccc1` is entered as -1, -2

Next compounds follow:
molecule	NPYLR7 agonist	NPYLR7 agonist max-min
CCCc1cc(N2CCOCC2)n2nc3nc(C)cc(C)c3c2n1	4	6
CC(C)c1nc(CNCCc2ccc(S(N)(=O)=O)cc2)cs1	10	7
CCc1nc2c(OCc3cccc(Cl)c3)cccn2c1N(C)C(=O)COc1ccccc1	-20	-23
Cc1cccnc1C(NC(=O)C1CCN(CCCc2ccccc2)CC1)c1ccc(Cl)cc1 (stereo not drawn)	9	1
CC(C)(Oc1ccc(Cl)cc1)C(=O)N1CCN(c2ccc([N+](=O)[O-])cc2)CC1	2	0
Cc1ccc(-c2nc(N3CCc4ccccc4C3)c3ccccc3n2)cc1	1	-5
Cc1csc(SCC(=O)c2c(N)n(C)c(=O)n(C)c2=O)n1	-7	-12
CC(CCC(C)(C)C)NC(=O)NCC1(N(C)C)CCOCC1 (stereo not drawn)	4	2
CC(C)C(=O)Nc1ccc(SCc2ccncc2)nn1	-1	-2
Cc1nc(C(C)C)sc1C(=O)NC1CCC(n2cnnc2)CC1 (stereo not drawn)	3	1
Cn1c(C(F)(F)F)nn(CN2CCC(Cc3ccccc3)CC2)c1=S	10	10
Cc1ccc(C(CN2CCOCC2)NS(=O)(=O)c2cccc(F)c2)cc1 (stereo not drawn)	6	3
COc1ccc(CCC(=O)NC(c2nccn2C)C(C)C)cc1OC (stereo not drawn)	-4	-3
O=C(c1ccc(Cl)c(F)c1)N1CCOC(COc2ccc(F)cc2)C1 (stereo not drawn)	4	1
CCN(CC)CCN(C(=O)CN1C(=O)c2ccccc2C1=O)c1nc2cc3c(cc2s1)OCO3	-4	-7
O=C(Nc1nc(-c2cc3ccccc3oc2=O)cs1)c1cnn2c(C(F)(F)F)cc(-c3ccccc3)nc12	-6	2
Cc1cccc(NC(=O)N2CC(=O)N3CCc4cc(F)ccc4C3C2)c1 (stereo not drawn)	-2	10
Cc1cccc(Cn2cccc2CN(Cc2cccc(F)c2F)CC(C)C)c1	26	22
CCOc1ccccc1C(=O)Nc1ccc(N2CCN(C(=O)NCc3cccc(F)c3)CC2)nc1	-1	0
NC(=O)c1c(SCC(=O)c2ccccc2)sc2c(O)cc(=O)[nH]c12	5	2
Nc1nc(N)nc(COC(=O)Cc2cccs2)n1	0	0
CCSc1[nH]c(=O)cc(C)c1C#N	-2&0	-3&8
O=C(NC1CCCN(C2CCCCCC2)C1)C1=CCCC1 (stereo not drawn)	4	-1
Cc1ccc(S(=O)(=O)N=[N+]([O-])C2([N+](=O)[O-])COC(C)OC2)cc1 (stereo not drawn)	1	0
CCOc1nc(-c2ccc(C)cc2)n(-c2ccc(NC(=O)c3cccs3)cc2)n1	22	23
Cn1cc(CCC(=O)N2CCC(c3n[nH]c(=O)n3-c3ccccc3)CC2)cn1	5	3
CCc1ccccc1OC1CN(C(=O)CN(C)C2CCS(=O)(=O)C2)C1 (stereo not drawn)	-10	-12
COc1ccc(C(=O)N2C[C@@H](O)[C@H](NCCc3ncccc3C)C2)cc1	4	3
O=C1CSC(c2cccc(C(F)(F)F)c2)N1c1ccc(I)cc1 (stereo not drawn)	-3	-6
C=CC[C@H]1CC(C)=C[C@H](CC=C)N1Cc1nc(-c2ccoc2)oc1C	4	0
CN1CC(=O)N2CCN(Cc3cccn3-c3ncccn3)CC2C1=O (stereo not drawn)	9&19	7&12
C=CCn1c(=O)c2c(nc3n2CCCN3c2ccccc2)n(C)c1=O	16	8
Nc1nc(Cl)cc(Nc2ccccc2F)n1	0	40
FC(F)(F)Oc1cccc(-c2nnc3ccc(-c4cccnc4)cn23)c1	17	9
N#CCCN(CCN1CCOCC1)C(=O)c1ccc2cc[nH]c2c1	13	12
CC1=CC(=C(C#N)C#N)C=C(c2ccccc2)O1	-3	32

An excerpt from above in order of formula weight, ascending:
molecule	NPYLR7 agonist	NPYLR7 agonist max-min
O=[N+]([O-])c1cc(S(=O)(=O)Nc2ccccc2)ccc1Nc1ccccc1	-1	-2
O=C1CSC(c2cccc(C(F)(F)F)c2)N1c1ccc(I)cc1 (stereo not drawn)	-3	-6
O=C(Nc1nc(-c2cc3ccccc3oc2=O)cs1)c1cnn2c(C(F)(F)F)cc(-c3ccccc3)nc12	-6	2

Going on with the list.
molecule	NPYLR7 agonist	NPYLR7 agonist max-min
CC(C)NC(=O)NC(=O)COC(=O)C12CC3CC(CC(C3)C1)C2	-1	3
O=C(O)c1cc2cc(Cc3cccnc3)ccc2o1	-10&0	-15&-24
OC(CC1CCCN1CCN1CCCCC1)c1ccccc1 (stereo not drawn)	3	1
O=C(O)c1cc(Br)cc(S(=O)(=O)NCc2ccco2)c1	2	1
O=[N+]([O-])c1ccc2[nH]c(O)c(N=Nc3ccccc3F)c2c1	-2	-9
CN(Cc1ccc(C(N)=O)cc1)C(=O)c1ccc2c(c1)OCO2	-4	-4
Cc1ccccc1C(=O)Nc1ccc(Nc2cc(-n3cccn3)ncn2)cc1	-5	-12
O=C1CCNc2ccc(Cl)cc2CN1C1CC1	6	11
Cc1cccc(-n2cc(CN3CCN(c4cc(C(N)=O)ccn4)CC3)cn2)c1	-2	-9
CN(C)C(=O)c1cn[nH]c1-c1ccc(F)c(Cl)c1	-17	-21
COc1ccc2c3c1C(CO)N(C(=O)C1CC1)CC3=CC(C)(C)CO2 (stereo not drawn)	1	3
CCC(C)N(C(=O)CN1CCN(c2cc(Cl)ccc2C)CC1)C1CCS(=O)(=O)C1 (stereo not drawn)	0	-3
Cc1nc(SCC(=O)N2CCCC2)c2c(C)c(C)sc2n1	-5	-7
COc1ccc(CNC(=O)C2CC=CCC2C(=O)N2CCC(C#N)(c3ccccc3)CC2)cc1 (stereo not drawn)	-6	-9
COc1ccc(-c2noc(CN(C)CC3CCN(CC(C)C)C3)n2)c(OC)c1OC (stereo not drawn)	3	-10
CN(CC(=O)Nc1ccccc1)Cc1ccc(Br)s1	6	1
CCc1nn(CCCC(=O)NCC2CCCN2CC)c(=O)c2cc3occc3n12 (stereo not drawn)	16	13
O=C1C2CC=CCC2C(=O)N1c1n[nH]c(Cc2ccccc2)n1 (stereo not drawn)	-10	-11
O=C1OC(c2ccccc2F)=N/C1=C\c1cccnc1	1	-4
CCOC(=O)c1cnc2ccc(C)cc2c1OCC(C)=O	-9	-10
COc1cc(NC(=O)Cn2c3ccccc3c(=O)c3ccccc32)cc(OC)c1OC	-2	-10
CC(C)c1cc(C(=O)N(C)Cc2cc(-c3ccncc3)no2)n(C)n1	12	10
COc1c(C)cc(-c2csc(C(N)=O)c2)cc1C	2	2
COc1ccc(C(=O)NCC2Cc3cc(F)ccc3O2)c(OC)c1 (stereo not drawn)	31	18
COc1c(C(=O)Nc2ccc(OC(C)C)c(C)c2)c(C)nn1C	-23	-22
Cc1ccc2nc(CCl)[n+]([O-])c(-c3ccccc3)c2c1	-3	-10
COc1cccc(Cn2c(C(=O)N3CCN(S(=O)(=O)c4ccc(F)cc4)C(C)C3)cc3ccoc32)c1 (stereo not drawn)	15	15
c1ccc(-c2cc(-c3ccccc3)on2)cc1	-5	-12
Cn1c(O)c(N=NC(=O)c2ccc(O)cc2)c2ccccc21	7	2
Cc1ccc(NC(=O)c2cc(C)n3nc(C(C)(C)C)cc3n2)cc1C	13	17
Cc1ccc(-c2csc(NC(=O)CC3CCCC3)n2)o1	6	4
CN(C)c1ccc(NC(=O)CSc2n[nH]c(CC3CCCC3)n2)cc1	2	1
CO[C@H]1C[C@@H]2C[C@H](c3ccccn3)OC[C@]2(O)[C@@H]1N1CCN(C(=O)c2ccco2)CC1	-2	0
COc1cccc(CNc2nc(NC(C)C)nc3ccsc23)c1OC	9	6
COc1cc(-c2ccc(SCC(N)=O)nn2)cc(OC)c1OC	11	5
Cc1sc2ncnc(N3CCC(C(=O)N4CCCCC4)CC3)c2c1C	-4	-7
CC(NC(=O)N1CCc2ccccc21)c1ccc(-c2cncnc2)cc1 (stereo not drawn)	-2	-1
CCOc1ccc(C(=O)Nc2nc(-c3ccc(OC)cc3)cs2)cc1	1	-7
CCOc1ccc(OCC)c(NC(=O)c2cnc3n[nH]c(C)c3c2)c1	7	4
CCN=c1scc(C)n1N=Cc1ccc(O)c(O)c1O	-11	-15
Cc1c(/C=C/C(=O)NC2C3CC4CC(C3)CC2C4)cnn1C (stereo not drawn)	-3	-5
COc1cccc(COC(CN2CCN(C(=O)c3sccc3C)CC2)c2ccc(Cl)cc2)c1 (stereo not drawn)	2	-2
Cc1ccc(CSc2nccn(-c3ccc(C)cc3)c2=O)cc1	5	4
CC(C)(C)c1ccc(C2=N/C(=C\c3cc4c(cc3Cl)OCO4)C(=O)O2)cc1	-3	2
O=C(c1c(F)cccc1Cl)N1CCC(c2nc(-c3ccc(Cl)cc3)no2)CC1	4	4
O=C(C1CCCN1Cc1cnc2ccccn12)N1CCCC2CCCCC21 (stereo not drawn)	0	17
CN1C(=O)c2cccc3c(Cl)cc(Cl)c1c23	6	5
CC(=O)c1ccc(S(=O)(=O)N2CCN(c3ncccc3C(=O)NCC3CCCO3)CC2)cc1 (stereo not drawn)	35	27

Part of the list above in a different format:
CCC(C)N(C(=O)CN1CCN(c2cc(Cl)ccc2C)CC1)C1CCS(=O)(=O)C1 (stereo not drawn)
  NPYLR7 agonist: 0; NPYLR7 agonist max-min: -3

Cc1nc(SCC(=O)N2CCCC2)c2c(C)c(C)sc2n1
  NPYLR7 agonist: -5; NPYLR7 agonist max-min: -7

COc1ccc(CNC(=O)C2CC=CCC2C(=O)N2CCC(C#N)(c3ccccc3)CC2)cc1 (stereo not drawn)
  NPYLR7 agonist: -6; NPYLR7 agonist max-min: -9

COc1ccc(-c2noc(CN(C)CC3CCN(CC(C)C)C3)n2)c(OC)c1OC (stereo not drawn)
  NPYLR7 agonist: 3; NPYLR7 agonist max-min: -10

Later entries:
molecule	NPYLR7 agonist	NPYLR7 agonist max-min
COCCN1CCCC2(CCN(Cc3cccc4nonc34)C2)C1 (stereo not drawn)	4	0
C=CCn1c(C)c(C)n2c3c(=O)n(Cc4cc(C)ccc4C)c(=O)n(C)c3nc12	6	7
CC(C)c1ccccc1OCc1nc(CN(CCN2CCCCC2)C(=O)C2CCCC2)cs1	-15	-2
COc1ccc(C2=NC(CC(=O)N3CCc4cc(OC)c(OC)cc4C3c3ccccc3)C(C)O2)cc1 (stereo not drawn)	24	10
COc1cc(-c2nc3ccccn3c2NC2CCCCC2)ccc1OC(=O)C12CC3CC(CC(C3)C1)C2	18	24
CCN(CC)c1ccc2cc(-c3nnc(Nc4cc(F)ccc4C)s3)c(=O)oc2c1	3	2
CCC(C(=O)NCc1cccnc1)n1c(=O)n(-c2cccc(C(F)(F)F)c2)c(=O)c2ccccc21 (stereo not drawn)	3	11
CC(C)c1ccc(CC(=O)N2CCC2(C)C(=O)NS(=O)(=O)c2ccc3c(c2)CCO3)cc1 (stereo not drawn)	-3	-11
O=C(Cc1n[nH]c(=O)c2ccccc12)NCCCCOc1ccc(F)cc1	-6	-10
COc1cccc(C(CN2CCN(S(=O)(=O)c3cc(C)ccc3OC)CC2)OCc2cccc(Cl)c2)c1 (stereo not drawn)	31	21
CCCCc1nnc2n1NC(c1ccc(Cl)cc1)S2 (stereo not drawn)	8	11
COC(=O)C(C)Sc1nnc(-c2ccncc2)n1-c1ccccc1C (stereo not drawn)	-1	10
CC(=O)c1cccc(CN2CCCC(Nc3ccccc3)C2)c1 (stereo not drawn)	0	-2
COc1ccc(-c2nnc(SCc3cccc(OC)c3)n2-c2ccccc2)cc1	-1	8
CC(c1nc(N)nc(N(C)C)n1)N1CCN(c2ccccc2F)CC1 (stereo not drawn)	10	2

Source: PubChem (Fisher Drug Discovery Resource Center)
